Source: PubChem (several laboratories)
CSC inhib – blocks cancer stem cells; inhibition, % at 7.5 µM; cancer stem cell-like cells viability, luminescence; hit rate 1.1% among 300,000;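 active = mean at 75% or more and at least half the replicates too; inconclusive = mean and replicates disagree; tested in HMLE shEcad cells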;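 also: 0% = median of negative and 100% = median of positive control wells; the first replicate is given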
HIV Env fusion – inhibitors of HIV Env-mediated cell fusion; HeLa-JRFL Env/CEM21 cell fusion, luciferase; inhibition, % at 12.3 µM; hit rate 1.1% among 360,000;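 active = mean replicate inhibition score of at least 50 and every replicate individually at or above 50; inconclusive = only one of the two criteria met; inactive = mean below 50 and not all replicates reaching 50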;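 also: 0% = plate neutral controls and 100% = maraviroc near 300 nM; one replicate is shown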
PABP polyA inh – blocks human PABP binding to poly(A) RNA; fluorescence polarization; inhibition, % at 35 µM; hit rate 1% among 290,000; AID 2014;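 active = 50% or more with normal probe brightness, or confirmed in later tests; inconclusive = above 50% with abnormal brightness, or retests that disagree; inactive = below 50% or failed in later tests; about a fifth of its hits are not listed in these tables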;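 also: calls also rest on retests at 20 µM and on dose response follow-up; controls were probe without protein and protein plus probe with vehicle; some compounds called inactive have numbers as strong as hits; many hits fall short of the cut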
Target sequence (P11940 whole entry, looked up): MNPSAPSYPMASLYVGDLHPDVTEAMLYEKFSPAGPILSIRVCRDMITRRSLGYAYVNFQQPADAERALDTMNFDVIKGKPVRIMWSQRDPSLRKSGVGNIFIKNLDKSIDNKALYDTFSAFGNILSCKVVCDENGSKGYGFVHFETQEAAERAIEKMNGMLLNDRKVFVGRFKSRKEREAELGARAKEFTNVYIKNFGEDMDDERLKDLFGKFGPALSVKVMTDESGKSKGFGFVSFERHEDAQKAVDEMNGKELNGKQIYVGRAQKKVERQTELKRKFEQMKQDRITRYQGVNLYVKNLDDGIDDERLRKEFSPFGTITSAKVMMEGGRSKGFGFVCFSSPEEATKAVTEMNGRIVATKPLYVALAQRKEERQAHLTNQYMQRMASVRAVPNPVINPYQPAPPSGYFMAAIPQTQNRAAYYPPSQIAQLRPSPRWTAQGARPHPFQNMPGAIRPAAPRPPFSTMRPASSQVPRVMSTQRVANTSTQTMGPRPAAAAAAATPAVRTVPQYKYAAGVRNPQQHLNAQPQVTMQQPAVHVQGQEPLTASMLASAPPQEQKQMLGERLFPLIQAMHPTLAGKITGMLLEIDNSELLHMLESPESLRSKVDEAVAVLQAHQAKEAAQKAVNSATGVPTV
Rce1 inhib – blocks yeast Ras-converting enzyme | AID 2563 | Q03530 | yeast membranes, quenched prenylated peptide cleavage fluorescence | hit rate 0.27% among 290,000 | calls only;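 active = fall in fluorescence gain of 50% or more versus controls, with final raw signal at or below 3038400; inconclusive = same 50% fall but final raw signal above 3038400; inactive = fall in fluorescence gain under 50%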;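 also: plate controls were neutral control wells for no effect and wells lacking membranes for full effect; tested at 10 µM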
Target sequence (Q03530 whole entry, looked up): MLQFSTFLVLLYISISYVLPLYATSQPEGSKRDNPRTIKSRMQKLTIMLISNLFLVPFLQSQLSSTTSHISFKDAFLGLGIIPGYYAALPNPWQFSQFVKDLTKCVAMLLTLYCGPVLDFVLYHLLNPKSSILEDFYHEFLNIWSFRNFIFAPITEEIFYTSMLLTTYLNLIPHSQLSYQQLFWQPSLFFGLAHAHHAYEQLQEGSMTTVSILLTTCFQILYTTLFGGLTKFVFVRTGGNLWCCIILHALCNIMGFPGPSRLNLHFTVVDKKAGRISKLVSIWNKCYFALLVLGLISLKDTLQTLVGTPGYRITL
MT1-MMP act inh – inhibitors of human MT1-MMP activation; GFP/RFP ratio change, % at 20 µM; hit rate 0.061% among 360,000; HT1080 RFP-PRO-GFP cells, GFP/RFP ratio fluorescence, overnight; percent of plate control window, DMSO zero;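 active = GFP/RFP ratio change of at least 30% with cell ATP level not reduced by more than half and red fluorescence within 50% of control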; also: strong numbers were not always called active
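system = RFP-PRO-GFP reporter HT1080 cells | dosing = 20 µM single dose, 1% DMSO | timing = overnight cell settling, then overnight compound exposure, 37 °C, 5% CO2 | read-out basis = GFP/RFP fluorescence ratio | controls = DMSO and RFP-L50D-GFP cell wells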
Yeast UUG start – alters start codon recognition fidelity in yeast; activity score, % at 18.7 µM; AID 602363; hit rate 0.13% among 350,000; S. cerevisiae UUG-firefly luciferase reporter, luminescence/redox ratio;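 active = replicate mean at a twofold rise or more, about +100% in these data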;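 also: firefly luciferase made from a UUG start codon reports start codon fidelity; reporter light over untreated wells divided by growth signal over untreated wells; some hits fall short of that in this replicate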
eIF4H FP inh – inhibitors of RNA binding by human eIF4H | Q15056 | eIF4H fluorescence polarization binding assay | inhibition, % at 35 µM | AID 2012 | hit rate 0.94% among 290,000;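 active = 50% or more with normal probe brightness, or confirmed in later tests; inconclusive = above 50% with abnormal brightness, or retests that disagree; inactive = below 50% or failed in later tests; about a fifth of its hits are not listed in these tables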;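 also: calls also rest on retests at 20 µM and on dose response follow-up; 0% = protein and probe with vehicle and 100% = probe without protein; strong numbers were not always called active; many hits fall short of the cut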
eIF4H FP inh retest – second read-out of eIF4H FP inh, no call of its own (marks repeat the call); inhibition, %; compound at 20 µM; confirmation average;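 mean of two retest wells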
PABP polyA inh retest – recorded beside PABP polyA inh, whose call it bears; inhibition, %; compound at 20 µM; confirmation repeats;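 mean of two retest wells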
MT1-MMP act inh RFP – further read-out of MT1-MMP act inh, marked with its call; RFP signal change, %; measured here: RFP expression control read;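 0 = vehicle wells; hits needed this value within 50% of zero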
Starred values were filed as active, the others as inactive; i = inactive; ? = inconclusive; . = not tested or not shown. Some of the compounds tested (hit frequency here may not be typical).

SMILES	CSC inhib	HIV Env fusion	PABP polyA inh	Rce1 inhib	MT1-MMP act inh	MT1-MMP act inh RFP	Yeast UUG start	eIF4H FP inh	others
CC1CCCCC1NC(=O)COC(=O)c1c2c(nc3ccccc13)/C(=C/c1ccco1)CC2 (configuration not stated)	-2.6	.	-7.6	i	3.0	7.0	.	88.3	eIF4H FP inh retest=0.6;PABP polyA inh retest=5.1
CC(C)Oc1ccc(C(=O)OC(C)C(=O)NC2CCCCC2C)cc1 (configuration not stated)	28.1	.	17.1	i	-0.7	-8.2	-5.5	18.3
COc1cc(/C=C2/SC(=S)N(Cc3ccccc3)C2=O)ccc1OCC(=O)O	20.1	-11.8	3.1	i	6.2	13.5	-10.6	18.3
CN1C[C@@H]2[C@@H]3C(=O)N(Cc4ccccc4)C(=O)[C@@H]3[C@](Cc3ccccc3)(C1=O)N2C(=O)c1ccc(Br)cc1	.	35.7	.	.	-6.3	0.8	10.1	.
C=CCNC(=S)N/N=C(\C)c1cccc(NC(C)=O)c1	16.0	7.3	11.1	i	-0.6	7.8	.	-3.6
CC(=O)OC(C(=O)NC1CCCCC1)c1cccc(C)c1 (configuration not stated)	-9.9	-39.5	4.9	i	-3.6	-0.1	3.8	-5.2
O=C(O)c1ccn(Cn2cnc3ccccc32)n1	-15.3	.	14.6	i	3.1	4.1	-9.2	3.0
Cc1ccc2nc(SCC(=O)Nc3cc(C(C)(C)C)nn3-c3ccccc3)[nH]c2c1	18.6	-17.6	-19.8	i	3.6	1.5	.	-9.6
CC(=Nc1cccc(C)c1)c1sc2ccccc2c1O	1.4	.	14.3	i	-37.2	8.9	5.9	6.0
COc1ccccc1NC(=S)NCC1CCC(CNC(=S)Nc2ccccc2OC)CC1 (configuration not stated)	-2.8	6.3	-12.3	i	2.5	-3.2	.	2.0
COC(=O)/C=C1\SC(N2CCOCC2)=C(c2ccc(OC)cc2)C1=O	-6.0	5.4	0.6	i	-0.5	3.9	.	-5.3
CCc1ccc(OC2(C)CCN(Cc3ccc4c(c3)OCCO4)C2)cc1 (configuration not stated)	.	4.4	.	.	-6.7	2.7	12.4	.
COCCn1c(C)cc(C(=O)COC(=O)c2n[nH]c3ccccc23)c1C	19.3	-111.5	5.9	i	3.1	-4.2	-77.0	2.7
COC(=O)c1cc(NC(=O)c2ccccc2)c(=O)oc1/C=C/Nc1ccc(Oc2ccccc2)cc1	.	9.4	3.3	i	-93.7	16.7	.	?
COc1ccc(CC(=O)NCCS(=O)(=O)N2CCN(c3ccccc3)CC2)cc1OC	-1.4	-11.5	.	i	-0.3	-0.9	-9.3	.
Cc1cc(C(F)(F)F)nc(NCc2cccnc2)n1	-10.8	-41.5	7.2	i	.	.	-9.3	8.7
CCN(CC)c1nc2c(c(=O)[nH]c(=O)n2C)n1Cc1ccccc1Cl	-14.9	-45.9	-6.0	i	-1.4	-0.5	4.6	4.9
CCC(=O)Nc1sc2c(c1C(=O)OC)CCN(Cc1ccccc1)C2	18.5	18.4	-13.9	i	3.1	1.5	-3.3	1.9
O=c1oc2ccccc2n1Cc1ccccc1	-10.9	5.7	-4.4	i	2.2	6.7	.	-8.1
O=C(NCc1cccc(Cl)c1)c1ccc2c(c1)SC1=NS(=O)(=O)CCN12	-7.5	8.4	-3.5	i	6.3	4.8	.	-2.9
O=C(O)c1ccc2c(c1)N(Cc1ccccc1)C(=O)c1ccccc1S2	-5.7	-15.7	11.4	i	2.4	4.9	-8.1	-4.2
CC(C)(C)n1ncc2c(=O)n(CC(=O)Nc3ccc(Cl)cc3)cnc21	-1.8	.	-3.5	i	-1.3	-3.5	-25.2	-9.7
CC(C)Cn1c(N)c(C(=O)NCCN2CCOCC2)c2nc3ccccc3nc21	-2.5	.	-7.5	i	-2.3	2.1	-25.8	0.9
Cc1cc(C(=O)COc2ccccc2Cl)c(C)n1C1CC1	.	-24.7	.	.	2.3	-6.7	-10.6	.
CCSc1nnc(NC(=O)Nc2cccc(C)c2)s1	43.4	-11.9	-4.9	i	2.2	-12.6	.	-10.9
Additional structures
SMILES	CSC inhib	HIV Env fusion	PABP polyA inh	Rce1 inhib	MT1-MMP act inh	MT1-MMP act inh RFP	Yeast UUG start	eIF4H FP inh	others
Cc1ccc(C)c(NC(=O)c2nc(Cl)ccc2Cl)c1	.	-32.8	1.0	i	2.4	5.5	-19.6	-1.5
OCc1ccccc1NC(=S)Nc1cccnc1	-5.2	-59.0	-4.2	i	0.5	3.4	.	17.3
COC(=O)[C@@H](CC(C)C)NS(=O)(=O)N(Cc1ccccc1)[C@@H](CC(C)C)C(=O)OC	8.8	55.0*	.	.	-7.0	-5.4	-2.0	.
COc1ccc(C(=O)NCC2OCCc3ccccc32)cc1 (configuration not stated)	3.3	-52.8	-3.0	i	3.7	1.6	-18.2	7.0
O=C(NCc1cc([N+](=O)[O-])ccc1O)c1cccnc1Sc1ccccc1Cl	-2.2	9.9	15.0	i	4.7	-1.6	-2.2	13.7
NS(=O)(=O)c1ccc(CCNS(=O)(=O)c2cccs2)cc1	-4.0	-18.6	-0.2	i	-2.9	4.9	-8.6	-1.6
COCCN(CC(=O)NCC1CCCO1)C(=O)CCC(=O)Nc1cc(C)on1 (configuration not stated)	14.5	-23.2	4.7	i	1.2	-5.6	-22.0	2.1
O=C(CN1CCN(C(=O)C2COc3ccccc3O2)CC1)Nc1ccccc1 (configuration not stated)	-10.9	-4.2	9.0	i	0.6	1.1	.	2.1
COCc1c(C(=O)N2CCc3ccccc32)oc2ccccc12	7.9	-1.6	4.4	i	-3.2	-1.6	-6.9	-3.3
COC(=O)C1=C(C(=O)OC)C(c2cc([N+](=O)[O-])ccc2O)c2sc(=O)[nH]c2S1 (configuration not stated)	19.5	-7.7	-54.0	i	4.2	7.0	.	1.6
CCOC(=O)C(=CNNc1cccc(Cl)c1)C(=O)OCC	39.7	-66.0	5.7	i	-4.8	-7.7	-19.2	2.1
CN(C(=O)c1ccc(NC(=O)Cc2ccc(NC(=O)C3CCCN(C(=O)C4CCCCC4)C3)cc2)cc1)C1CC1 (configuration not stated)	-4.5	-5.2	.	.	2.4	-2.1	2.7	.
CCOC(=O)c1cnc(SCC(=O)NCc2cccs2)nc1N	8.1	-32.3	-2.0	i	2.4	2.8	-6.8	0.5
CCC(C(=O)NCc1ccco1)N(Cc1cccs1)C(=O)CNS(=O)(=O)c1ccccc1 (configuration not stated)	-2.6	-2.0	-7.6	i	-2.5	-2.1	14.2	1.6
Cc1cc(C)n(-c2ccc(NC(=O)C3CCN(Cc4cnc(C)s4)CC3)cc2)n1	-9.8	8.1	1.0	i	-8.0	-3.1	-1.8	-5.2
Cc1ccc(S(=O)(=O)c2c(C)nn(C(C)(C)C)c2OC(=O)c2ccc(Br)o2)cc1	91.3*	.	-2.8	i	-2.6	2.9	.	-5.6
C=C1C[C@H]2[C@@H]3CCc4cc(OC)ccc4[C@H]3CC[C@]12C	18.6	-2.3	.	i	-0.1	-1.2	-16.5	.
CCCNC(=O)NC(=O)CSc1cccc(C(F)(F)F)c1	0.1	-6.1	28.4	i	1.3	-3.0	.	6.4
CN(CC(=O)NCCc1ccc(S(N)(=O)=O)cc1)S(=O)(=O)c1cccc2nsnc12	24.4	3.6	16.9	i	-3.1	-2.4	-10.6	2.8
COc1ccc(OC)c(S(=O)(=O)Nc2ccc(O)c(Sc3ncn[nH]3)c2)c1	-12.6	.	4.6	i	3.4	0.5	-3.7	4.6
Cc1ccc(NC(=O)Nc2cccs2)cc1	10.0	.	-2.5	i	1.4	0.9	-22.3	1.5
O=C1NC[C@H](Cc2ccccc2)N(C[C@H]2CCCN2C[C@H](Cc2ccccc2)N2C[C@H](Cc3ccccc3)N(CC3CCCCCC3)C(=O)C2=O)C1=O	.	2.2	.	.	-2.5	-12.4	11.2	.
O=C(CNS(=O)(=O)c1c(Cl)cccc1Cl)N1CCCCCC1	15.5	7.9	9.4	i	-2.1	-1.7	6.5	-3.9
CCCN1C(=O)C(O)(C/C(C)=N/O)c2ccccc21 (configuration not stated)	0.8	.	-1.1	i	-1.4	2.1	-6.1	-2.5
CCOC(=O)C(C)c1c(C(=O)c2ccc(C)nc2)c2ccccc2n1C (configuration not stated)	-8.0	-3.0	-8.5	i	.	.	.	-5.9
Remaining list, next part:
SMILES	CSC inhib	HIV Env fusion	PABP polyA inh	Rce1 inhib	MT1-MMP act inh	MT1-MMP act inh RFP	Yeast UUG start	eIF4H FP inh	others
Cc1nc(-c2cccnc2)sc1C(=O)Nc1ccc(Cl)cc1	-1.2	26.3	9.3	i	2.4	-5.8	-20.3	-3.2
Cc1ccc(NC(=O)C(C)OC(=O)Cc2c[nH]c3ccccc23)cc1 (configuration not stated)	5.2	.	.	i	-2.0	-1.2	.	.
CC1CCCCC1NC(=O)CNC(=O)c1ccco1 (configuration not stated)	-6.9	-4.3	.	i	-0.6	3.9	.	.
COc1ccc(/C=C/C(=O)Nc2c(C(=O)O)[nH]c3ccccc23)cc1OC	-2.3	7.5	12.0	i	-1.1	3.8	-8.1	-3.1
CCCCC(CCC(=O)O)(C(=O)OCC)c1csc(Nc2ccccc2)n1 (configuration not stated)	14.5	.	-6.7	i	2.1	-0.6	-2.4	-8.6
Clc1ccc2[nH]c3c(NCC4CCCO4)ncnc3c2c1 (configuration not stated)	1.6	.	-2.9	i	.	.	.	-1.6
Cc1noc(C)c1S(=O)(=O)N1CCCCC1	-8.5	.	-3.2	i	-9.1	5.3	-24.3	-1.1
O=C(CCC(=O)N1CCSc2ccccc21)NCc1ccc(Cl)cc1	-0.6	-7.9	-16.7	i	2.4	0.9	8.9	-11.8
CC(C)(O)c1cc2ccc(C#Cc3ccsc3)cc2c(=O)o1	24.0	9.1	.	.	0.7	3.1	-15.7	.
CCOC(=O)c1c(C)[nH]c(C)c1S(=O)(=O)NCc1ccc(OCC)cc1	-8.1	-0.7	13.6	i	-2.0	-1.1	-3.6	2.4
Cc1ccc(SCc2[nH]nc3c2C2(CCSCC2)C(C#N)=C(N)O3)cc1	0.4	.	3.9	i	1.3	0.1	.	1.1
